KCNQ2 inh – KCNQ2 channel blockers in CHO-K1 cells – cell-based, FluxOR thallium flux, B-score, primary screen (AID 2156). O88943. 20 min; active compounds read low; only compounds with negative scores are shown here; some inactives read as strong as hits. B-score at 10 µM. hit rate 1.1% among 310,000;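 active = fluorescence ratio B-score at most minus 3 library SDs, with starting brightness B-score within 2 library SDs, cut at about -5.5 in these data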
Target sequence (O88943 whole entry, looked up): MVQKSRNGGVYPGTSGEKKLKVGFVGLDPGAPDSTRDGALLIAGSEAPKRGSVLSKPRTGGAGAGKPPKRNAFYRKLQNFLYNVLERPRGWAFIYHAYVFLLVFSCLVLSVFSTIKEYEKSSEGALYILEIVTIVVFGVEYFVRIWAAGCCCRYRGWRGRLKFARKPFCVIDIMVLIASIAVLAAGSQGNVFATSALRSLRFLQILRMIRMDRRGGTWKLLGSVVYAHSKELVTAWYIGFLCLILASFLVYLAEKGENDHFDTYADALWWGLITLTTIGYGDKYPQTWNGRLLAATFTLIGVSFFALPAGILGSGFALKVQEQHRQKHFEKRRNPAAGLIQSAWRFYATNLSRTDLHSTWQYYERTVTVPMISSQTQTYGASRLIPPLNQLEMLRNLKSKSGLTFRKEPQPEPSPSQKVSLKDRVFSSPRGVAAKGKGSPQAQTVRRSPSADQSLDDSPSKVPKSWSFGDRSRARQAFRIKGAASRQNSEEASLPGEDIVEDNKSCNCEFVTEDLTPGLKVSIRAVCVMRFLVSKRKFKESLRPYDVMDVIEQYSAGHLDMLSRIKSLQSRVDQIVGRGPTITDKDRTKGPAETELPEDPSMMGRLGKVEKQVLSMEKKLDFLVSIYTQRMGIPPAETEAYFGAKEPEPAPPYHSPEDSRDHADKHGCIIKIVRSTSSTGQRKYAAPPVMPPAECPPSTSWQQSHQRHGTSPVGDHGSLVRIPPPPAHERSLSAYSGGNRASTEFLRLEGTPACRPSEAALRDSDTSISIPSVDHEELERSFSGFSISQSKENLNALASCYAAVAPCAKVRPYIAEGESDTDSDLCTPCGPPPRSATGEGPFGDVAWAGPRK
KCNQ2 inh baseline – also measured in KCNQ2 inh; calls as there; B-score; measured here: initial fluorescence intensity artifact check;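 brightness before thallium and not channel activity; 0 = typical well and far values either way flag optical interference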
Active calls of the source: *; i = inactive. Not all compounds are listed (hit frequency here may not be typical).

Compound	KCNQ2 inh	KCNQ2 inh baseline
COc1cccc(NC(=O)CN(C)C(=O)c2ccc(OCc3ccccc3)c(OC)c2)c1	i	0.36
COc1ccc(CCNCc2ccc(OCC(=O)N3CCCCC3)c(OC)c2)cc1OC	i	-1.08
O=C(NCc1cccs1)[C@@H]1CSC2c3ccccc3C(=O)N21 (some centres not stated)	i	0.46
O=C(COc1ccccc1)N1N=C(c2cccnc2)CC1(O)C(F)(F)F (configuration not stated)	i	-0.47
CC1CCCC(C)N1C(=O)c1cc(-c2ccc(Cl)c(Cl)c2)on1 (configuration not stated)	i	-0.45
Cc1ccc(S(=O)(=O)NCc2csc(C)n2)cc1	i	-0.66
O=C(CNC(=O)c1ccc(Cl)cc1)Nc1ccc(S(=O)(=O)Nc2ncccn2)cc1	i	0.44
CCc1ccccc1NC(=O)c1onc(C)c1Cl	i	-1.15
COc1ccc(Cl)cc1NC(=O)C1CCCN(S(=O)(=O)c2cccc3nonc23)C1 (configuration not stated)	i	0.01
CSc1nc(=O)n(-c2ccccc2)c(C)c1C(C)=O	i	-0.19
CN(C)c1ccc(/C=N\NC(=O)c2csnn2)cc1	i	2.15
Cc1ccc(-c2csc(NC(=O)C3CC=CCC3C(=O)O)c2C(=O)OC(C)C)cc1 (configuration not stated)	i	-0.01
CC(NC(=O)COc1ccccc1)C(=O)NC1=NCCS1 (configuration not stated)	i	-0.59
CN(C)S(=O)(=O)c1cccc(NC(=S)N/N=C/c2ccco2)c1	i	1.14
COc1ccc2cc3cc(C(=O)NCCN4CCc5ccccc5C4)sc3nc2c1	i	-0.17
CCc1nnc(NC(=O)C2c3ccccc3Oc3ccccc32)s1	i	0.87
O=S(=O)(Nc1nc2ccccc2nc1N1CCc2ccccc2C1)c1ccc(Cl)cc1	i	-0.62
CCC(C)(C)NC(=O)C(c1ccccc1Cl)N(C(=O)CCC(=O)Nc1cc(C)on1)c1ccc(NC(C)=O)cc1 (configuration not stated)	i	-0.72
Cc1oc2c(c1C(=O)Nc1ccc(C(=O)O)cc1)CCCC2	i	-1.39
COCCCNC(=O)/C(C#N)=C/c1c(N2CCN(C)CC2)nc2ccccn2c1=O	i	0.02
COc1ccccc1Nc1nc(N)nc(CN2CCc3ccccc3C2)n1	i	0.41
CCOc1ccccc1OCC(=O)OCc1csc(CC(=O)Nc2ccccc2C)n1	i	-0.49
CC(=O)Nc1ccc(S(=O)(=O)NCCc2ccc(F)cc2)cc1	i	1.14
O=C(N/N=C\c1ccc(O)c([N+](=O)[O-])c1)c1ccccc1-n1cccc1	i	0.83
CC1Cc2ccccc2N1C(=O)CSc1nc(-c2ccco2)cc(C(F)(F)F)n1 (configuration not stated)	i	0.27
C=CCN1C(=O)C(CC(=O)Nc2ccccc2)SC1=Nc1ccc(S(N)(=O)=O)cc1 (configuration not stated)	i	1.49
COc1ccc(C(=O)OC2CCN(c3ncc(C(F)(F)F)cc3Cl)CC2)cc1	-8.67*	1.93*
CC(C)C(NC(=O)/C=C/c1ccc(F)cc1)C(C)C	i	-0.6
S=c1[nH]nc(C2CCCCC2)n1/N=C/c1ccc(Br)cc1	i	-0.1
Cc1cc(NC(=O)CSCC(=O)Nc2ccccc2Oc2ccccc2)no1	i	-0.67
CCCCOc1ccccc1N	i	1.26
O=C1C2C3C=CC(CC3)C2C(=O)N1/N=C/c1c(O)ccc2ccccc12 (configuration not stated)	i	-0.33
CCCS(=O)(=O)N1CCN(S(=O)(=O)c2ccccc2)CC1	i	4.7
Cc1ccc(OCCn2c(=O)n(C)c3ccccc32)cc1	i	0.47
CCCn1c2ccccc2c2cnn(CC(=O)NC3CCCCC3C)c(=O)c21 (configuration not stated)	i	0.03
CCOC(=O)C1(Cc2cccc(Cl)c2)CCCN(C(=O)c2c(CC)noc2C)C1 (configuration not stated)	i	0.48
O=[N+]([O-])c1ccc(CSc2nnc(Cc3ccccc3)n2-c2ccc(F)cc2)cc1	i	1.63
C/C(=N\OCC(=O)Nc1ccc2c(c1)OCCO2)c1ccc2c(c1)OCCO2	i	-0.23
CCOC(=O)c1c(C)nc2c(c1-c1ccc(OC)c(OC)c1)C(=O)c1ccccc1-2	i	0.99
Cc1cccc(C(=O)NNC(=O)c2ccccc2[N+](=O)[O-])c1	i	-0.02
O=c1[nH]c(NC2CCCCC2)nnc1Cc1ccccc1	i	0.23
COc1ccc(N2C(=O)CC(Nc3ccc(N4CCOCC4)cc3)C2=O)c(OC)c1 (configuration not stated)	i	2.85
COc1cc(C(=O)Nc2ccc3c(c2)ncn3C(C)(C)C)cc(OC)c1OC	i	-0.46
CCCCc1ccc(N2C(=O)[C@@H]3C(CC(N)=O)NC4(C(=O)Nc5ccc(F)cc54)[C@@H]3C2=O)cc1 (some centres not stated)	i	1.85
Cc1c(CCOC(=O)CC23CC4CC(CC(C4)C2)C3)sc[n+]1CC(=O)c1ccccc1	-8.53*	0.33*
O=C(CSc1cccs1)Nc1cccc2ccccc12	i	0.67
O=C(CCC(=O)c1ccccc1)NCCOc1ccccc1	i	1.58
O=C(Nc1cc(Cl)ccc1Cl)c1ccc(-c2ccccc2)cc1	i	1.11
Clc1ccccc1-c1nnc(-c2cccnc2)o1	i	1.04
Cc1cc(NC(=O)CSc2nnc(-c3ccncc3)n2Cc2ccccc2)n(-c2ccccc2)n1	i	-0.77

(continued)
Compound	KCNQ2 inh	KCNQ2 inh baseline
Cc1ccc2c(C)c(C(=O)Nc3nnc(C)s3)oc2c1	i	-0.09
CC1(C)CC(=O)C2=C(C1)N(CCN1CCOCC1)C1=C(C(=O)CC(C)(C)C1)C2c1cccc(F)c1	i	-0.13
COc1ccc(NC(=O)Cn2c(C(C)C)nc(C)cc2=O)cc1Cl	i	0.19
NNC(=O)c1nn(-c2ccc(Cl)cc2)cc1O	i	0.52
COc1ccc(C(CNC(=O)CSc2ccccc2F)N2CCOCC2)cc1 (configuration not stated)	i	0.51
CCc1ccc(OCC(=O)N(CC)CC)cc1	i	3.18
CCC(C)(C)NC(=O)C1CCC(CNS(=O)(=O)c2cccc3nsnc23)CC1 (configuration not stated)	i	2.09
CN(Cc1ccno1)Cc1cn(C)nc1-c1ccc(Oc2ccccc2)cc1	i	-1.92
CCCCCn1nc(C(=O)N(CCOC)c2c(N)n(CCCC)c(=O)[nH]c2=O)c2ccccc2c1=O	i	-0.45
Cc1cccc(CCNC(=O)CC2C(=O)NCCN2CC2CCCCC2)n1 (configuration not stated)	i	0.93
COc1ccc(-c2oc3ccccc3c2C(=O)OCc2ccc([N+](=O)[O-])cc2)cc1	i	-0.52
CCOC(=O)c1cnn(-c2ccccc2)c1-n1cccc1C(=O)C(=O)Nc1ccc(OC)cc1	i	0.63
Cc1cnc(CN(C)C(=O)C2CCC(=O)N(CCc3cccc(F)c3)C2)[nH]1 (configuration not stated)	i	-2.03
O=C(Nc1cc(S(=O)(=O)Nc2ccc(Cl)cc2)ccc1N1CCCCC1)c1ccc(F)cc1	i	-0.01
CC(=O)c1ccc(NC(=O)CCSCCC(=O)Nc2ccc(C(C)=O)cc2)cc1	i	-0.32
CCOC(=O)C1=C(C)NC(=O)NC1c1ccc([N+](=O)[O-])o1 (configuration not stated)	i	-0.89
CCOC(=O)C1CCN(C(=O)CCS(=O)(=O)c2ccc3c(c2)CC(C)N3C(=O)CC)CC1 (configuration not stated)	i	0.06
Cc1ccccc1CN(C)C(=O)CNC(=O)c1ccc2ccccc2c1	i	-0.28
CCOC(=O)c1c(NC(=O)CS(=O)(=O)c2cn(CC)c3ccccc23)sc2c1CCCCC2	-7*	2.39*
COC(=O)CNC(c1ccccc1)c1cc(Br)ccc1NS(=O)(=O)c1ccccc1 (configuration not stated)	i	-1
CC(C)NC(=O)C(=O)Nc1cc2c3c(c1)C(C)C(=O)N3CCC2 (configuration not stated)	i	0.89
CC1(C)CC(=O)C=C(NCc2ccc(C(=O)O)cc2)C1	i	0.52
CC(Sc1nc(N)c(NC(=O)c2ccc(Br)o2)c(=O)[nH]1)C(=O)O (configuration not stated)	i	-0.9
CC(C)OCCCNC(=O)CN1C(=O)CC(C)(C)S(=O)(=O)c2ccccc21	i	-0.2
N#C/C(=C\c1ccccc1)C(=O)NCCN1CCOCC1	i	0.13

Part of the list above in a different format.
KCNQ2 inh	KCNQ2 inh baseline	Compound
i	-0.28	Cc1ccccc1CN(C)C(=O)CNC(=O)c1ccc2ccccc2c1
i	2.09	CCC(C)(C)NC(=O)C1CCC(CNS(=O)(=O)c2cccc3nsnc23)CC1 (configuration not stated)
i	-0.9	CC(Sc1nc(N)c(NC(=O)c2ccc(Br)o2)c(=O)[nH]1)C(=O)O (configuration not stated)
i	-0.52	COc1ccc(-c2oc3ccccc3c2C(=O)OCc2ccc([N+](=O)[O-])cc2)cc1
i	3.18	CCc1ccc(OCC(=O)N(CC)CC)cc1
i	0.63	CCOC(=O)c1cnn(-c2ccccc2)c1-n1cccc1C(=O)C(=O)Nc1ccc(OC)cc1

Single entries from the results shown:
CC1Cc2ccccc2N1C(=O)CSc1nc(-c2ccco2)cc(C(F)(F)F)n1 (configuration not stated) – KCNQ2 inh baseline: 0.27
CCOC(=O)c1c(C)nc2c(c1-c1ccc(OC)c(OC)c1)C(=O)c1ccccc1-2 – KCNQ2 inh baseline: 0.99
COc1ccc(Cl)cc1NC(=O)C1CCCN(S(=O)(=O)c2cccc3nonc23)C1 (configuration not stated) – KCNQ2 inh baseline: 0.01
COc1ccc2cc3cc(C(=O)NCCN4CCc5ccccc5C4)sc3nc2c1 – KCNQ2 inh baseline: -0.17
CCc1ccccc1NC(=O)c1onc(C)c1Cl – KCNQ2 inh baseline: -1.15

New compounds follow:
Molecule	KCNQ2 inh	KCNQ2 inh baseline
COc1cc(NC(=O)Cn2ccsc2=N)c(C)cc1[N+](=O)[O-]	i	0.11
CN(C)CCN(C(=O)c1cccc2ccccc12)c1nc2cc3c(cc2s1)OCO3	i	2.09
COc1ccc(C)c2sc(N(CCCN(C)C)C(=O)c3ccc4c(c3)OCCO4)nc12	i	-1.11
CC1CC(c2ccccc2)n2nc(NC(=O)c3ccco3)nc2N1 (configuration not stated)	i	-0.37
O=C(O)c1ccccc1C(=O)Nc1ccc(S(=O)(=O)NC2CCCCC2)cc1	i	-1.78
COc1ccc(C(=O)NCCc2cc3ccc(C)c(C)c3[nH]c2=O)cc1OC	i	0.26
CN(C(=O)COC(=O)CNS(=O)(=O)/C=C/c1ccccc1)C1CCS(=O)(=O)C1 (configuration not stated)	i	0.97
COC(=O)C1=C(C)NC(=O)NC1c1ccccc1Cl (configuration not stated)	i	0.74
COCC(=O)n1nc(-c2ccccc2)nc1NCc1ccc(N(C)C)cc1	i	-0.17
Cc1ccc(NC(=O)Cn2c(=O)cnc3ccccc32)cc1S(=O)(=O)N(C)C	i	-1.48
Cc1ccc(S(=O)(=O)N(C)C)cc1NC(=O)C1CCCC1	i	-0.09
C=C(C)CNC(=S)N/N=C/c1c(F)cccc1F	i	0.85
CCOC(=O)c1[nH]ncc1CN1CCN(Cc2ccc(C)cc2)C(CCO)C1 (configuration not stated)	i	0.74
CCCCOc1ccc(C(=O)N(CC)CC(=O)NCc2cccs2)cc1	i	0.4
NC(=O)CC1C(=O)N(c2ccc(F)cc2)C(=O)N1NC(=O)CCc1ccccc1 (configuration not stated)	i	0.07
CCSc1ccc([C@@H]2[C@H]3C(=O)N(CC)C(=O)[C@H]3[C@]3(C(=O)OC)CCCCN23)cc1	i	-0.01
O=C(Nc1ccc2c(c1)OCCO2)c1cccs1	i	-0.45
O=C(NNC(=O)[C@@H]1CCCC[C@@H]1C(=O)O)c1cccs1	i	1.25
COc1ccc(/C=N\Nc2ccccn2)c(OC)c1	i	0.32
CN1CCN(Cc2cccc(Oc3ccc(Cl)cc3)c2)CC1	i	0.97

The last 2 records of the part above come first, to join the parts.
Molecule	KCNQ2 inh	KCNQ2 inh baseline
COc1ccc(/C=N\Nc2ccccn2)c(OC)c1	i	0.32
CN1CCN(Cc2cccc(Oc3ccc(Cl)cc3)c2)CC1	i	0.97
COC(=O)c1c(C)oc2ccc(N(C(=O)Oc3ccccc3)S(=O)(=O)c3ccc(Cl)c([N+](=O)[O-])c3)cc12	i	-0.33
Cc1nn(C)c(C)c1CN(C)C(=O)c1nn2c(c1Br)NC(c1cccs1)CC2C(F)(F)F (configuration not stated)	i	1.92
CCn1c(COc2ccccc2)nnc1SCC(=O)Nc1ccc2c(c1)OCCO2	i	0.95
Cc1cccc(N=Cc2cc3c(cc2[N+](=O)[O-])OCO3)c1	-6.49*	0.16*
COc1ccc(N2C(=O)CC(SCCc3nc4ccccc4[nH]3)C2=O)cc1 (configuration not stated)	i	2.54
CCCCC(=Nc1ccc(N)cc1)C1=C(O)C(C(=O)OC)C(C)(C)CC1=O (configuration not stated)	i	1.27
Cc1[nH]n(-c2cccc(Cl)c2)c(=O)c1-c1ccc(Cl)cc1	i	0.41
O=C(N/N=C/c1c[nH]c2ccccc12)c1ccn(Cc2ccc(Cl)cc2)n1	i	0.24
CCN1C(=O)/C(=C/c2ccc(C)s2)SC1=Nc1ccc(OC)cc1	-6.31*	-0.66*
Cc1ccc(C(NC(=O)c2ccccc2)C(Cl)(Cl)Cl)cc1 (configuration not stated)	i	-0.58
CS(=O)(=O)N1CCN(c2ccc(NC(=O)Cc3ccccc3)cc2)CC1	i	0.06
CC(C)N(Cc1cc2ccccc2[nH]c1=O)C(=O)C1CCCCC1	i	0.42
CCCn1c(=O)[nH]c(=O)c2c1nc(-c1ccccc1OC(F)F)n2CCOC	i	1.53
CCOc1ccc(Nc2nc(N3CCOCC3)nc(N3CCOCC3)n2)cc1	i	-0.06
CC(C)C[C@H](NC(=O)Nc1cccc(Cl)c1)C(=O)O	i	-1.04
O=C1CN(C(=O)COc2cccc(F)c2)c2ccccc2N1	i	0.06
CCOC(=O)COc1cc2c(C(=O)OCC)c(C)oc2cc1Br	i	3.22
Cc1nn(C)c(Cl)c1/C=N/OC(=O)c1ccc(F)cc1	i	0.9
